AF4-AF9 inh – inhibitors of AF4 peptide binding to AF9, primary screen, biochemical, AlphaScreen, biotin-AF4 peptide, FLAG-AF9, single point; inhibition, % at 10 µM; Protein AF-9 (Homo sapiens), P42568; AID 651704, 2012; actives 0.47% (n = 350,000);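 active means every replicate reaching a set inhibition limit, whatever the replicate mean, cut at about 25% in these data; inconclusive means mean inhibition reaches that limit but some replicates miss it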;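 further: 0% = plate neutral control median and 100% = total signal loss; the record names both 10 and 1 µM as test concentration; the first replicate is given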
Target sequence (P42568 whole entry, looked up): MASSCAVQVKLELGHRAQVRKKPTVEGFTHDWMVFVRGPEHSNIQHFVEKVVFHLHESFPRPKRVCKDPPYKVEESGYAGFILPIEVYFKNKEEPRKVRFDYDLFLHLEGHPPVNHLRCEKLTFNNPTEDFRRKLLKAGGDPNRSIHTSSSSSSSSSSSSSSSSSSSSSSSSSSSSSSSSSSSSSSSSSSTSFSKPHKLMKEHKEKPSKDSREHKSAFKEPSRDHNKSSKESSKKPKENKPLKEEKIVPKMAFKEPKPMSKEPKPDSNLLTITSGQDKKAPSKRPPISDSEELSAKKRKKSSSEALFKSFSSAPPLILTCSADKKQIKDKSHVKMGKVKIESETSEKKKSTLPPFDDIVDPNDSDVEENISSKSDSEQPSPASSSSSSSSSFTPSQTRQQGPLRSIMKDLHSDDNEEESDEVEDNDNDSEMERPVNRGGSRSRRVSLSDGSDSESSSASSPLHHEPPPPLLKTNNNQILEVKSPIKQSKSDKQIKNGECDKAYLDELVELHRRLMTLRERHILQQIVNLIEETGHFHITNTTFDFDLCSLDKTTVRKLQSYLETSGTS
rRNA inh HTS – reduced GFP signal of wild-type E. coli, primary screen, bacterial rRNA inhibitor project, GFP/RFP fluorescence, OD600, single point; GFP signal change (wild-type ribosome), % (no concentration beside the values); E. coli WT GFP vs humanized-ribosome RFP mutants, 24 h; active compounds read low; DMSO median 0, no signal -100; actives 1.6% (n = 350,000); AID 720706, 2013;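 active means significant combined selectivity score with lowered wild-type GFP, culture density cut under 30%, mutant RFP and density less affected; inactive means any of these conditions unmet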; further: one replicate is shown; some compounds called inactive have numbers as strong as hits
E coli growth – E. coli growth inhibition, primary screen, OD600 | Escherichia coli growth, 23 h; active compounds read low | actives 0.21% (n = 330,000) | OD600 absorbance (concentration not given with the values);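 active means OD600 absorbance below the run mean of sample wells minus 3.6 SD, in any replicate, cut at about 0.56 in these data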;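 further: stock transfer was 300 nL into about 60 µL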
Vif TR-FRET – inhibitors of Vif binding to APOBEC3G peptide, primary screen, biochemical, TR-FRET, GST-Vif 1-94, biotin-A3G peptide, dose response retest (AID 1117319); Virion infectivity factor (Human immunodeficiency virus type 1 group M subtype B (isolate …; TR-FRET GST-Vif / biotin-A3G peptide binding; higher % means a stronger effect; test concentration not given here; strong numbers were not always called active; inhibition, %; hits with a dose series show IC50 in µM; actives 0.57% (n = 260,000);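 active means above the screen mean plus three standard deviations and confirmed in dose response; inconclusive means results disagree or hit not tested in dose response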;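 further: Vif residues 1-94 fused to GST binding biotinylated APOBEC3G peptide 110-148; 0% = full assay without inhibitor and 100% = GST in place of GST-Vif; retest series ran down from 100 µM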
ALR H2O2 inh – inhibitors of human ALR sulfhydryl oxidase, primary screen, biochemical, H2O2 detection, HRP-luminol luminescence, single point. actives 3.8% (n = 290,000). AID 485317, 2010. inhibition, % (no concentration beside the values). purified ALR, DTT oxidation. FAD-linked sulfhydryl oxidase ALR (Homo sapiens), P55789;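 active means mean and each replicate at 75% or more; inconclusive means only one of the two met; inactive means neither met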;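 further: stock transfer was 7.5 nL into about 7.5 µL; 0% = neutral wells and 100% = wells with inactivated enzyme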
Target sequence (P55789 whole entry, looked up): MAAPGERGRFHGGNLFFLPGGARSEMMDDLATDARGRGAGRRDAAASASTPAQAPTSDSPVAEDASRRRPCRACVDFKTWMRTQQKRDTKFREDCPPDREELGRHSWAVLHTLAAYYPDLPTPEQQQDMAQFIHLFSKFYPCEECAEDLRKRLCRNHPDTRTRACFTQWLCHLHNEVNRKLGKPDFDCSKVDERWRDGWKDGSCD
HNF4A DNA FP – change in binding of human HNF4A to DNA, primary screen, biochemical, fluorescence polarization, FITC-DNA | Hepatocyte nuclear factor 4-alpha (Homo sapiens), P41235 | 1 h | activity change, % at 10 µM | actives 0.3% (n = 360,000) | AID 1224865, 2016; in the data active means activity change above about 30%, passing the limit was not always enough;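 further: controls were the assay level and a saturating level of protein; the project sought stronger binding though the title names inhibitors; some compounds called inactive have numbers as strong as hits; positive values seem to mean higher polarization but the record does not say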
FGF22 binding – binders of human FGF22 protein, primary screen, FGF22 synaptogenesis inhibitor project, biophysical, thermal shift, single point; Fibroblast growth factor 22 (Homo sapiens), Q9HCT0; recombinant FGF22 thermal shift, SYPRO orange fluorescence; percent of sucrose octasulfate shift, DMSO zero; calls only at 9.99 µM; actives 1.5% (n = 340,000); AID 651658, 2012;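 active means melting point raised past a set limit in the mean and every replicate; inconclusive means no clear call; three in four hits are not shown here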
Target sequence (Q9HCT0 whole entry, looked up): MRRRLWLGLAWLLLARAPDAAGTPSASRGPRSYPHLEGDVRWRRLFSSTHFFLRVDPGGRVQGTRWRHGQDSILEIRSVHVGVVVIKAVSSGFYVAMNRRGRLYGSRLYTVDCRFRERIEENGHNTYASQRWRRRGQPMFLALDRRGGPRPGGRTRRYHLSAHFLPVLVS
rRNA inh HTS OD600 – second read-out of rRNA inh HTS, no call of its own (marks repeat the call); OD600 change, %; measured here: OD600 growth;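 optical density of the mix in the first replicate; 0 = DMSO median and -100 = no signal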
rRNA inh HTS RFP – also measured in rRNA inh HTS; calls as there; RFP signal change, %; measured here: RFP humanized mutant strains;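 first replicate; 0 = DMSO median and -100 = no signal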
Starred values were filed as active, the others as inactive.

`CN1CCN(c2ccc(CNC(=O)c3ccco3)cc2)CC1` gave AF4-AF9 inh 1.6, rRNA inh HTS 12, E coli growth 0.63, ALR H2O2 inh -10, HNF4A DNA FP -0.2, FGF22 binding inactive, rRNA inh HTS OD600 14 and rRNA inh HTS RFP 3.7.
O=C(Nc1ccc(S(=O)(=O)N2CCCC2)cc1)c1ccc(F)cc1 was read as AF4-AF9 inh -1.4, rRNA inh HTS 6, HNF4A DNA FP 2.8, FGF22 binding inactive, rRNA inh HTS OD600 8 and rRNA inh HTS RFP -1.1.
`Cc1ccsc1C(=O)NNC(=O)c1cccc(S(=O)(=O)N2CCCC2)c1` gave AF4-AF9 inh -0.3, E coli growth 0.7, Vif TR-FRET -4%, ALR H2O2 inh 6, HNF4A DNA FP 1.9 and FGF22 binding inactive.
`Cc1cc(C)nc(SCc2ccc(C(=O)N/N=C/c3ccco3)cc2)n1` gave AF4-AF9 inh -5.7, rRNA inh HTS -6, Vif TR-FRET -10%, ALR H2O2 inh 10, HNF4A DNA FP -0.1, FGF22 binding inactive, rRNA inh HTS OD600 -10 and rRNA inh HTS RFP -13.
For CCC(C)NC(=O)Cn1cc(S(=O)(=O)N2CCCC2)c(S(=O)(=O)N2CCCC2)c1 (centres undefined) the results were AF4-AF9 inh -2.9, rRNA inh HTS 16, E coli growth 0.71, ALR H2O2 inh -3, HNF4A DNA FP -1.1, FGF22 binding inactive, rRNA inh HTS OD600 11 and rRNA inh HTS RFP -1.0.
COc1cccc(CNC(=O)CCNC(=O)Cn2ccc3ccccc3c2=O)c1 was read as E coli growth 0.74, Vif TR-FRET 1% and HNF4A DNA FP -0.6.
`CCCN1CCC(NC(=S)Nc2ccc(S(N)(=O)=O)cc2)CC1` gave AF4-AF9 inh 0.7, rRNA inh HTS 22, E coli growth 0.69, Vif TR-FRET inconclusive, ALR H2O2 inh 7, HNF4A DNA FP 5.3, FGF22 binding inactive, rRNA inh HTS OD600 18 and rRNA inh HTS RFP 2.5.
For COc1cc2[nH]c(=O)c(C(=O)NCCCN3CCOCC3)c(O)c2cc1OC the results were AF4-AF9 inh -1.7, rRNA inh HTS 14, Vif TR-FRET 15%, ALR H2O2 inh -11, HNF4A DNA FP -1.9, FGF22 binding inactive, rRNA inh HTS OD600 9 and rRNA inh HTS RFP -2.0.
O=C(C[C@@H]1CC[C@@H]2[C@H](COC[C@@H](O)CN2C(=O)c2ccncc2)O1)NCc1ccc(-c2ccccc2)cc1 was read as AF4-AF9 inh -13, rRNA inh HTS 0, FGF22 binding inactive, rRNA inh HTS OD600 0 and rRNA inh HTS RFP -1.4.
For CC1CC(C)(C)CC2(C1)NC(=O)N(CC(=O)NCCc1ccc3c(c1)OCCO3)C2=O (centres undefined) the results were AF4-AF9 inh -0.2, rRNA inh HTS -13, E coli growth 0.67, ALR H2O2 inh -3, HNF4A DNA FP 1.4, FGF22 binding inactive, rRNA inh HTS OD600 -19 and rRNA inh HTS RFP -5.4.
For Cc1cc(C(=O)NCc2cccc(Cl)c2)c2ccccc2n1 the results were E coli growth 0.68, ALR H2O2 inh 0 and HNF4A DNA FP -2.3.
`CCCNC(=O)N[C@@H]1C=C[C@@H](CC(=O)N2CCN(C)CC2)O[C@@H]1CO` gave AF4-AF9 inh -1.5, rRNA inh HTS 0, FGF22 binding inactive, rRNA inh HTS OD600 8 and rRNA inh HTS RFP -2.3.
Screening CC(=O)Nc1ccc(OC(=O)c2cc3cc(Br)cc(Br)c3oc2=O)cc1 returned AF4-AF9 inh -4.1, rRNA inh HTS -11, E coli growth 0.74, FGF22 binding inactive, rRNA inh HTS OD600 -5 and rRNA inh HTS RFP 3.2.
`CCN(CC)CCCNc1nc2ccccc2c2nc(-c3ccncc3)nn12` gave AF4-AF9 inh 2.4, rRNA inh HTS -6, E coli growth 0.65, Vif TR-FRET 1%, ALR H2O2 inh -16, HNF4A DNA FP 2.2, FGF22 binding inactive, rRNA inh HTS OD600 -1 and rRNA inh HTS RFP 2.0.
`N[C@@H](Cc1ccccc1)C(=O)N1CCC(C(=O)NCC(=O)NCC(=O)O)CC1` gave AF4-AF9 inh -5.2, rRNA inh HTS -2, E coli growth 0.69, HNF4A DNA FP 0.1, FGF22 binding inactive, rRNA inh HTS OD600 -1 and rRNA inh HTS RFP -1.7.
`CC(=O)Nc1ccc(C(=O)OCC(=O)NCCC2=CCCCC2)cc1` gave AF4-AF9 inh -0.6, rRNA inh HTS 0, E coli growth 0.68, Vif TR-FRET 1%, HNF4A DNA FP 2.0, FGF22 binding inactive, rRNA inh HTS OD600 4 and rRNA inh HTS RFP 1.9.
COc1ccccc1NC(=O)c1cc(C)nc2ccccc12 was read as AF4-AF9 inh 1.3, rRNA inh HTS 3, E coli growth 0.71, Vif TR-FRET -1%, HNF4A DNA FP -1.1, FGF22 binding inactive, rRNA inh HTS OD600 6 and rRNA inh HTS RFP 0.4.
Screening O=C(c1ccccc1Cl)N1CCN(c2ncccn2)CC1 returned AF4-AF9 inh -1.2, E coli growth 0.65, ALR H2O2 inh -3, HNF4A DNA FP 0.0 and FGF22 binding inactive.
Screening COc1cccc(-c2cc3nc(NCc4ccc5occc5c4)n(C)c(=O)c3s2)c1 returned AF4-AF9 inh -0.9, rRNA inh HTS 4, HNF4A DNA FP -1.4, FGF22 binding inactive, rRNA inh HTS OD600 11 and rRNA inh HTS RFP -1.4.
Screening COc1ccc(OC)c(NC(=O)C2CCCN(S(=O)(=O)c3ccc(-n4cnnn4)cc3)C2)c1 (centres undefined) returned AF4-AF9 inh 0.1, rRNA inh HTS 7, E coli growth 0.7, ALR H2O2 inh -12, HNF4A DNA FP 2.1, FGF22 binding inactive, rRNA inh HTS OD600 2 and rRNA inh HTS RFP -0.5.
NS(=O)(=O)c1ccc(NC(NC(=O)c2cccnc2)C(Cl)(Cl)Cl)cc1 (centres undefined) was read as AF4-AF9 inh -2.6, rRNA inh HTS 3, E coli growth 0.67, ALR H2O2 inh 1, HNF4A DNA FP -2.7, FGF22 binding inactive, rRNA inh HTS OD600 4 and rRNA inh HTS RFP 8.7.
Screening C[C@@H]1CN([C@H](C)CO)C(=O)c2cc(NC(=O)CCC(F)(F)F)ccc2O[C@H]1CN(C)C(=O)Nc1ccccc1 returned AF4-AF9 inh -11, rRNA inh HTS 3, FGF22 binding inactive, rRNA inh HTS OD600 9 and rRNA inh HTS RFP -0.8.
`Cc1noc(C)c1NC(=O)N(C)C[C@H]1Oc2c(NS(=O)(=O)c3ccccc3)cccc2C(=O)N([C@@H](C)CO)C[C@H]1C` gave AF4-AF9 inh 0.4, rRNA inh HTS 1, FGF22 binding inactive, rRNA inh HTS OD600 2 and rRNA inh HTS RFP -2.1.
COc1ccc(-c2ccc3n(c2=O)C[C@@H]2[C@@H](CO)[C@H](C(=O)N(C)C)[C@H]3N2Cc2cccnc2)cc1 was read as AF4-AF9 inh 0.8, rRNA inh HTS 1, FGF22 binding inactive, rRNA inh HTS OD600 3 and rRNA inh HTS RFP -2.8.
For O=C(Cc1ccccc1F)Nc1ccccc1N1CCCC1 the results were AF4-AF9 inh 5.4, rRNA inh HTS -1, E coli growth 0.67, Vif TR-FRET 5%, ALR H2O2 inh 98*, HNF4A DNA FP -1.2, FGF22 binding inactive, rRNA inh HTS OD600 -13 and rRNA inh HTS RFP -4.0.
CCC(=O)Nc1nnc(SCC(=O)NCCc2ccc(OC)c(OC)c2)s1 was read as AF4-AF9 inh 0.2, rRNA inh HTS 15, E coli growth 0.68, Vif TR-FRET -2%, HNF4A DNA FP -1.9, FGF22 binding inactive, rRNA inh HTS OD600 13 and rRNA inh HTS RFP -6.8.
For C[C@]1(OC(=O)/C=C/c2ccccc2)C[C@@H](O)[C@]2(O)C=CO[C@@H](O[C@@H]3O[C@H](CO)[C@@H](O)[C@H](O)[C@H]3O)[C@@H]21 the results were AF4-AF9 inh -3.1, ALR H2O2 inh -6, HNF4A DNA FP 2.9 and FGF22 binding inactive.
Screening CC(=O)N1c2ccc(S(=O)(=O)N3CCC(C(=O)NCc4ccccc4)CC3)cc2CC1C (centres undefined) returned AF4-AF9 inh -1.2, rRNA inh HTS 1, E coli growth 0.72, ALR H2O2 inh -6, HNF4A DNA FP 2.1, FGF22 binding inactive, rRNA inh HTS OD600 8 and rRNA inh HTS RFP -1.7.
For CC(=O)N1CCCc2cc(S(=O)(=O)N(C)CC(=O)Nc3ccccc3)ccc21 the results were AF4-AF9 inh -1.4, rRNA inh HTS -2, Vif TR-FRET -4%, HNF4A DNA FP 0.1, FGF22 binding inactive, rRNA inh HTS OD600 -3 and rRNA inh HTS RFP -1.5.
For C[C@H](NC(=O)C[C@H]1C=C[C@H](NC(=O)C2CCOCC2)[C@H](CO)O1)c1ccccc1 the results were AF4-AF9 inh -0.8, rRNA inh HTS 1, FGF22 binding inactive, rRNA inh HTS OD600 9 and rRNA inh HTS RFP 1.4.
Screening CCCN(C)C[C@H]1Oc2ncc(-c3cccc(C(=O)N(C)C)c3)cc2C(=O)N([C@H](C)CO)C[C@@H]1C returned AF4-AF9 inh -2.0, rRNA inh HTS 1, FGF22 binding inactive, rRNA inh HTS OD600 5 and rRNA inh HTS RFP 0.4.
Screening O=C(NN1C(=O)/C(=C/c2ccc(O)cc2)SC1=S)c1ccccc1O returned AF4-AF9 inh 1.7, rRNA inh HTS -34, E coli growth 0.58, ALR H2O2 inh 99*, HNF4A DNA FP 106*, FGF22 binding inactive, rRNA inh HTS OD600 -37 and rRNA inh HTS RFP -8.5.
Screening CCOC(=O)CN1CC23C=CC(O2)C(C(=O)NCCc2ccccc2)C3C1=O (centres undefined) returned AF4-AF9 inh -1.0, rRNA inh HTS 5, E coli growth 0.69, Vif TR-FRET 3%, ALR H2O2 inh -8, HNF4A DNA FP 2.2, FGF22 binding inactive, rRNA inh HTS OD600 9 and rRNA inh HTS RFP -1.5.
`CCN1CCN(CCC(=O)Nc2ccccc2)CC1` gave AF4-AF9 inh -3.9, rRNA inh HTS 1, E coli growth 0.68, ALR H2O2 inh 13, HNF4A DNA FP -0.8, FGF22 binding inactive, rRNA inh HTS OD600 5 and rRNA inh HTS RFP 0.3.
Screening CO[C@@H]1CN(C)C(=O)c2cc(NC(C)=O)ccc2OC[C@@H](C)N(Cc2nccs2)C[C@@H]1C returned AF4-AF9 inh -9.1, rRNA inh HTS 3, FGF22 binding inactive, rRNA inh HTS OD600 2 and rRNA inh HTS RFP 1.5.
`Cc1onc(-c2ccccc2Cl)c1C(=O)N1CCN(C=O)CC1` gave AF4-AF9 inh -1.5, rRNA inh HTS 4, E coli growth 0.69, Vif TR-FRET 3%, ALR H2O2 inh -6, HNF4A DNA FP -2.2, FGF22 binding inactive, rRNA inh HTS OD600 12 and rRNA inh HTS RFP 1.3.

Screening data: PubChem BioAssay, several laboratories

Some of the compounds tested (hit frequency here may not be typical).
